# S aureus helic = S. aureus DNA helicase inhibition; AID 485395; 120,000 compounds, 0.05% hits; inhibition, %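 (tested at about 80 µM)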; purified S. aureus helicase, fluorescence unwinding assay; about half of the hits fall short of the stated cut;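 active means both duplicates at 50% or more, or one of them with a favoured structure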;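 further: 0% = mean of negative control wells and 100% = mean of positive control wells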
# MgrA-DNA mod = modulators of Staphylococcus aureus MgrA DNA binding. fluorescence polarization. inhibition, %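 (about 10 µg/mL by stock and volumes)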. 84,000 compounds, 0.13% hits. AID 602314;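 active means above 50% in either of two replicates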;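 further: 0% = protein plus DNA without compound and 100% = DNA alone without protein; higher means less MgrA bound to DNA so lower polarization; one replicate is shown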
# An asterisk follows results filed as active; · = no result given. This is a subset; rates above refer to the full screens.
mol | S aureus helic | MgrA-DNA mod
Cc1n[nH]c(C)c1Sc1ccccc1NC(=O)c1ccc(F)cc1 | -19.0 | 1.7
Cc1nn2c3ccccc3nc2n(Cc2ccccc2)c1=O | 13.0 | 2.3
COc1ccc(-c2noc(CCCCCNC3CCSC3)n2)cc1 (stereo not given) | -7.0 | ·
COc1ccc(CCn2c(=O)c3cccnc3n(CC(=O)NCc3ccc(C)cc3)c2=O)cc1OC | -24.0 | ·
COc1ccc(OC)c(CNCCCO)c1 | 7.0 | -0.8
CCOc1ccccc1NC(=O)CSc1ccccc1Cl | 42.0 | -2.2
O=C1CC(c2cccc(O)c2)Nc2ccc3ccccc3c21 (stereo not given) | 8.0 | 0.0
Oc1[nH]c(=S)sc1C=Nc1ccccc1 | -14.0 | 2.2
CCOC(=O)N1CCN(C(=O)CSc2nnc3[nH]c(=O)cc(-c4ccccc4)n23)CC1 | 12.0 | ·
Cc1ccc2c(c1)c1c3n2CCN(CC(O)CN2CCCC2)C3CCC1 (stereo not given) | 8.0 | -5.5
Cn1c(=NC(=O)c2cc(=O)c3ccccc3o2)sc2cc(Br)ccc21 | 10.0 | ·
CC1=CC(C)(C)SC(N)=N1 | 17.0 | -1.2
CCn1c(SCC(=O)Nc2nc(C)cs2)nnc1C(C)Oc1ccccc1 (stereo not given) | 15.0 | -0.7
COc1cc(C)nc(N(CCO)CCO)n1 | 7.0 | ·
CCn1c2ccccc2c2cc(NC(=O)C3SC(=Nc4ccc(Cl)cc4)C(C(=O)NCc4ccco4)=C3N)ccc21 (stereo not given) | -8.0 | ·
CC1CC(=O)Nc2ccccc2N1C(=O)c1ccc([N+](=O)[O-])cc1 (stereo not given) | · | -0.1
O=c1c(=O)n2c(nn1CN1CCOCC1)sc1ccccc12 | · | 1.2
CC1=C(c2ccc(C)cc2)S(=O)(=O)N=C1N1CCCCC1C (stereo not given) | 5.0 | ·
O=C(OCC(F)(F)C(F)F)c1ccc(C(=O)OCC(F)(F)C(F)F)cc1 | 7.0 | -5.7
O=C(O)c1ccc(=O)n(CCOc2ccccc2)n1 | 3.0 | ·
Cc1cc(Oc2ccc3oc4ccccc4c3c2)n2ncnc2n1 | -1.0 | ·
CCOC(=O)c1c(C)[nH]c(C)c1S(=O)(=O)N1CCc2ccccc21 | 8.0 | ·
COc1ccccc1OCCNC(=O)c1ccc2c3c(cccc13)CC2 | -2.0 | 1.1
CN1C/C(=C/c2cccnc2)C(=O)/C(=C/c2cccnc2)C1 | 6.0 | ·
O=S(=O)(Nc1ccc(OC(F)(F)F)cc1)c1cccc2nsnc12 | · | 2.5
CC(C)(CNC(=O)c1cn(-c2ccccc2)nc1-c1ccccc1)N1CCOCC1 | -2.0 | ·
O=C(CSc1ncnc2sc(-c3ccccc3)cc12)c1ccc2c(c1)OCCO2 | 10.0 | 2.0
O=C(CS(=O)(=O)c1nnnn1C1CCCCC1)Nc1ccc(F)cc1 | 6.0 | ·
O=C(Cc1ccc(Cl)cc1)NC1=NCCS1 | 6.0 | -1.1
O=C(CN1C(=O)CSCC1=O)Nc1ccccc1 | -2.0 | ·
COC(OC)/C(C)=N/NC(N)=S | · | 0.0
Cc1ccccc1C1C=C(c2ccc(F)cc2)Nc2ncnn21 (stereo not given) | 0.0 | ·
O=c1[nH]c2nc3ccccc3n2c2ncccc12 | -4.0 | ·
CC1(C)Cc2c(sc(N)c2C(=O)O)CO1 | 19.0 | ·
CN(Cc1ccccc1)C(=O)c1cn(C)c2ccc(S(=O)(=O)N3CCCC3)cc2c1=O | -6.0 | ·
Cc1ccc(-n2cnc3ccccc3c2=O)cc1C | 20.0 | -1.8
COc1ccc(-c2n[nH]c(=S)n2Cc2ccccc2)cc1OC | 3.0 | -2.4
CCOc1ccccc1OCC(=O)N(C)Cc1ccc2c(c1)OCCO2 | -6.0 | ·
Cn1nc(CC(=O)Nc2ccc3c(c2)CCC3)c2ccccc2c1=O | -9.0 | 3.0
N#CC1=C(N)N(c2ccccc2)NC1(C(F)(F)F)C(F)(F)F | 11.0 | 2.0
CSc1nnc(NC(=O)C2CCCCC2)s1 | 11.0 | ·
CN(C)CCNc1nsc2ccccc12 | -33.0 | ·
NC(=O)N1CCCC1=O | 13.0 | -1.0
NC1=[N+](c2ccccc2)Cc2ccccc21 | 12.0 | -2.9
CC(C)NC(=O)C1CCC(=O)N1Cc1ccccc1Cl (stereo not given) | 13.0 | -3.6
Cc1ccc(C(=O)CC(c2ccccc2)C(C#N)C#N)cc1 (stereo not given) | -9.0 | 1.8
CCn1c(=O)c(=O)[nH]c2cc(C(=O)Nc3ccccc3N3CCOCC3)ccc21 | 7.0 | ·
Cn1c(-c2cc3ccc(O)c(CN4CCCCCC4)c3oc2=O)nc2ccccc21 | -14.0 | ·
CCCSC1=C(C#N)C(c2ccco2)C(C(=O)Nc2ccccc2OC)=C(C)N1 (stereo not given) | 13.0 | ·
O=C(/C=C/c1ccc(Br)o1)Nc1nccs1 | 38.0 | 1.9

# Seven compounds already listed, ordered by their value in S aureus helic, high to low:
mol | S aureus helic | MgrA-DNA mod
CCOc1ccccc1NC(=O)CSc1ccccc1Cl | 42.0 | -2.2
Cc1ccc(-n2cnc3ccccc3c2=O)cc1C | 20.0 | -1.8
Cc1nn2c3ccccc3nc2n(Cc2ccccc2)c1=O | 13.0 | 2.3
N#CC1=C(N)N(c2ccccc2)NC1(C(F)(F)F)C(F)(F)F | 11.0 | 2.0
O=C(OCC(F)(F)C(F)F)c1ccc(C(=O)OCC(F)(F)C(F)F)cc1 | 7.0 | -5.7
COc1ccc(-c2n[nH]c(=S)n2Cc2ccccc2)cc1OC | 3.0 | -2.4
CC(C)(CNC(=O)c1cn(-c2ccccc2)nc1-c1ccccc1)N1CCOCC1 | -2.0 | ·

# (more compounds)
mol | S aureus helic | MgrA-DNA mod
Cc1nn(-c2ccccc2)c(Oc2ccc(F)cc2)c1/C=N/NC(N)=O | 5.0 | ·
COc1ccc(NC(=O)c2cccc3c2C(=O)N(C2CCCCC2)C3)cc1 | 27.0 | ·
O=C(O)C12CCCC(Br)(CCC1)C2 | 18.0 | 0.6
CCNc1nc(NCC)nc(N2n3c(nc4sc5c(c4c3=O)CCCC5)SCC2(O)c2ccc(OC)cc2)n1 (stereo not given) | 6.0 | ·
O=C(CSc1ccccc1C(=O)O)NCC1CCCCC1 | -5.0 | ·
CCN(C(=O)CSc1ccccn1)C1CCCCC1 | -12.0 | 2.8
c1ccc(-c2noc(CSc3nc4ccccc4[nH]3)n2)cc1 | 4.0 | ·
Cc1[nH]c2ccccc2c1C(=O)CSc1ncccn1 | 13.0 | ·
CCn1cc(/C=C(\NC(=O)c2ccco2)C(=O)N2CCc3ccccc32)c2ccccc21 | 1.0 | ·
CCOC(=O)c1cccc(NC(=O)n2ncc3cc(Cl)ccc32)c1 | -7.0 | ·
COc1ccc(OC)c(CNC(=O)C2CCCN(c3nc4ccccc4o3)C2)c1 (stereo not given) | -9.0 | ·
CCc1ccc(C(=O)COC(=O)c2cnccn2)cc1 | 0.0 | ·
CC(=O)Nc1ccc(-c2nc(-c3ccco3)c(-c3ccco3)[nH]2)cc1 | -22.0 | ·
CCOC(=O)NN=C1CCC(c2ccccc2)CC1 (stereo not given) | 34.0 | ·
O=S1(=O)CCC(N=Cc2ccc(-c3ccc(Cl)cc3)o2)C1 (stereo not given) | 1.0 | -5.2
NC(=O)c1cc2c(ccc3ccccc32)o1 | 14.0 | -0.8
CCCNC(=O)c1ccc(COc2ccc(C(C)(C)C)cc2)o1 | 9.0 | ·
COc1ccc(-c2cc3ccccc3n2CC(O)CNC(CO)(CO)CO)cc1 (stereo not given) | 6.0 | ·
O=C(NCCc1ccc(C(F)(F)F)cc1)C1CC(=O)N(c2ccc3c(c2)OCCO3)C1 (stereo not given) | 11.0 | ·
CCOc1ccccc1-n1c(SCC(=O)NCc2ccco2)nc2ccccc2c1=O | 1.0 | ·
O=C(Nc1ccc2c(c1)COCO2)c1cc2ccccc2oc1=O | · | 0.2
COc1cccc(-c2nnc(SCC(=O)N3c4ccccc4Sc4ccccc43)o2)c1 | 15.0 | -3.0
N#Cc1c(-c2ccccc2)cc(-c2ccccc2)c(C#N)c1N | 6.0 | -0.8
N#CCSc1nc2ccccc2o1 | · | 3.5
Cc1cc(C)c(C#N)c(SCC(=O)NC2CCCCC2)n1 | -12.0 | 0.6
Cc1nccn1C(C)CC(=O)O (stereo not given) | 5.0 | -2.1
CCCCn1c(NN)nc2sc3c(c2c1=O)CCCC3 | 2.0 | 1.1
CC(C)(C)NC(=O)Cn1nnc(-c2ccc(S(C)(=O)=O)cc2)n1 | -1.0 | 2.1
CCN(CC)C1=CC2=CC(=C(C#N)C#N)CCC2CC1 (stereo not given) | -233.0 | ·
COc1ccc(-c2nc3ccccc3c(=O)n2NC(=O)/C=C/c2ccc(Br)cc2)cc1OC | · | 0.1
CC(C)C(NS(=O)(=O)c1ccc2c(c1)OCCO2)C(=O)OCc1nnc(-c2ccccc2)o1 (stereo not given) | 13.0 | ·
Cn1c(=NC(=O)COc2ccccc2)sc2cccc(F)c21 | 2.0 | ·
c1ccc2c(c1)NC(c1ccc3c(c1)OCO3)S2 (stereo not given) | · | 3.0
Cn1c(N)c(C(=O)COC(=O)C2CCN(S(=O)(=O)c3cccs3)CC2)c(=O)n(C)c1=O | 5.0 | ·
CCCCNC(=O)c1cn(C)c2ccc(S(=O)(=O)N(CC)CC)cc2c1=O | -26.0 | ·
CS(=O)(=O)c1ccccc1C(=O)Nc1ccc(C#N)cc1 | 2.0 | ·
CC(NC(=O)c1ccccc1)c1nc2ccccc2[nH]1 (stereo not given) | -6.0 | ·
COc1ccc2[nH]c(-c3ccccc3)cc2c1 | · | 3.1
O=C(O)C1CCCN1C(=O)c1cncc(Br)c1 (stereo not given) | -5.0 | -2.5
O=C(CCCCl)Nc1ccccc1Cl | -5.0 | -1.3
O=C(O)CCc1ccccc1OC(=O)c1ccccc1 | · | -1.1
Cc1ccccc1NC(=O)c1ocnc1C | -2.0 | ·
CCCc1cc2c(=O)c(-c3ccc(C(=O)OCC)o3)c(C(=O)OCC)oc2cc1OC | · | 1.4
CCN1CCc2c(sc3nc(=S)[nH]c(N)c23)C1 | 17.0 | 35.7
COc1ccc2nc(NC(=O)CCNS(=O)(=O)c3cccc4nsnc34)sc2c1 | 3.0 | ·
CCOC(=O)C1CCCN(C(=O)c2cc(-c3ccco3)nc3ccccc23)C1 (stereo not given) | 12.0 | ·
C(=N\N=C\c1cccs1)/c1cccs1 | -15.0 | ·
CCOC(=O)N1CCN(S(=O)(=O)c2ccc(F)c(C(=O)Nc3ccc(C(F)(F)F)cc3)c2)CC1 | 7.0 | ·
CCOc1ccc(NC(=O)c2c[nH]n3c(=O)cc(C4CCN(C(=O)OC(C)(C)C)CC4)nc23)cc1 | -9.0 | ·
Cn1c(=N)n(CCOc2ccccc2Cl)c2ccccc21 | -13.0 | -1.0

# (next part)
mol | S aureus helic | MgrA-DNA mod
CN1CCN(C(=O)c2ccc(Cn3cc(Cl)cn3)o2)CC1 | 2.0 | ·
Cc1oc(CC(C)C)cc1C(=O)N1CCN(C(=O)c2cc(CC(C)C)oc2C)CC1 | -2.0 | 2.0
Cc1csc2nc(CCNC(=O)c3cccs3)cn12 | 1.0 | ·
O=C(O)CCCC(=O)Nc1cccc2cccnc12 | 4.0 | -0.7
O=C(O)c1ccccc1Oc1ccccc1 | 4.0 | ·
COc1ccc(C2CC(C(F)(F)F)n3ncc(C(=O)Nc4sc5c(c4C(=O)OC(C)C)CCCC5)c3N2)cc1 (stereo not given) | · | 0.0
O=C(Cn1nnc(COc2ccccc2)n1)Nc1cccc(C(=O)NC2CC2)c1 | 6.0 | ·
NC(=O)CNC(=O)COc1ccccc1 | · | -2.3
CCC(CC)C(=O)Nc1nonc1-c1ccccc1 | -17.0 | ·
CC1(C)CC(=O)c2cc(OCC(=O)NCc3cccnc3)ccc2O1 | 26.0 | ·
Cc1c(C)c(C)c(CSC2=NCN(Cc3cccnc3)CN2)c(C)c1C | · | -0.8
COC1CC(O[C@@H]2[C@H](C)[C@H](OC3OC(C)CC(N(C)C)C3OC(C)=O)[C@H](C)CC3(CO3)C(=O)[C@@H](C)C(OC(C)=O)[C@H](C)[C@H](C)OC(=O)[C@@H]2C)OC(C)C1OC(C)=O (stereo not given in full) | · | 1.4
COC(=O)C1CCCc2c1[nH]c1ccc(Cl)cc21 (stereo not given) | 17.0 | 2.0
Cc1ccc(Nc2nnc(C(C)(C)C)c(=O)[nH]2)c(C)c1 | -9.0 | ·
CC1CCN(C(=O)c2ccccc2NC(=O)c2cccnc2)CC1 | 8.0 | 0.7
CCN1CCCC1CNS(=O)(=O)c1cc(-c2cc(C)no2)ccc1C (stereo not given) | -1.0 | ·
CCCOC(=O)CSc1nc(C)cc(C)c1C#N | -7.0 | ·
O=c1ccccn1Cc1ccccc1F | 3.0 | 0.8
Cc1oc(=O)c(NC(=O)c2ccccc2)cc1C(=O)c1ccccc1 | · | 1.2
N#C/C(=C\c1ccc(-c2cccc(C(=O)O)c2)o1)C(=O)NC1CCCCC1 | 23.0 | 3.9
Cc1ccc(C(=O)NCC(=O)OCc2ccc(Cl)c(Cl)c2)cc1 | -8.0 | -0.9
O=S(=O)(Oc1ccc(OCc2ccccc2)cc1)c1cc(Cl)cc(Cl)c1 | · | -0.2
NC(=O)NC1CCS(=O)(=O)C1 (stereo not given) | 9.0 | -0.8
CCc1ccc2[nH]c(=O)c(CNCCO)cc2c1 | 17.0 | 1.5
COC(=O)C1=C(C)N=c2s/c(=C3\C(=O)Nc4ccccc43)c(=O)n2C1c1ccccc1 (stereo not given) | 3.0 | ·
Cc1occc1C(=O)NC1CCCc2ccccc21 (stereo not given) | 9.0 | 1.2
O=C(CSc1ccc(Br)cc1)NC1CCCC1 | -27.0 | -0.6
COCCOC(=O)C1=C(C)NC2=C(C(=O)CC(c3ccccc3)C2)C1c1cc2c(cc1Cl)OCO2 (stereo not given) | · | 0.8
CC(C)NC(=O)NNc1ccc(-c2csnn2)cc1 | 21.0 | ·
O=C(NCc1ccc(Cl)cc1)c1cccnc1SC(F)F | -8.0 | ·

# Compound activity: PubChem, ICCB-Longwood Screening Facility, Harvard Medical School
